Bioassay records as filed in PubChem.
Rango dissoc inh – inhibition of RanGTP-driven Rango-importin beta dissociation | O95149+P62826 | Biochemical FRET Rango-importin beta, RanGTP-induced dissociation | Potency, µM (doses to about 46.1 µM), inactives show at the highest dose activity change, negative = inhibition | 0.071% of 340,000 active | AID 540253; active means falling FRET ratio curve, often poorly fitted, with flat reads before Ran was added; inconclusive means other falling curves, or compound fluorescence or quenching; inactive means flat or rising ratio curve;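 note: potency is the fitted concentration of half-maximal effect; % of control where 0% means no effect; nearly all actives have a fitted effect of over 45% in size; -100% = wells without RanGTP and RCC1; the record marks most hits as doubtful in a second field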
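Quantitative HTS using a FRET biosensor: 0.1 uM Rango, 0.25 uM importin beta, 0.6 uM Ran, 2 mM GTP, 0.2 uM RCC1 final, PBS with DTT, Tween-20 and BSA. Post-read taken 45 min after Ran addition.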
miR-21 reporter – raises the signal of a miR-21 reporter; 340,000 tested, under 10 active; HeLa miR-21 FLuc reporter, luciferase, 48 h; Potency, µM (highest dose often 38.3 µM), inactives show top-dose reporter change, positive = more light; active = well fitted rising curve with a large enough effect; inconclusive = small, poorly fitted or top-dose-only effect; inactive = no such curve, though single readings can be large or run the other way;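 note: % of control where 0% means no effect; miR-21 action dims this reporter so a rising signal means less miR-21 action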
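HeLa cells endogenously expressing miR-21, stably carrying CMV-driven firefly luciferase with a downstream miR-21 binding site, 2000 cells/well. Titrations up to approximately 40 uM, 48 hours; luciferase luminescence read.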
GLA inh pH 4.5 – alpha-galactosidase A (human) inhibition, pH 4.5 | P06280 | purified enzyme, 4-MU-alpha-Gal fluorescence, pH 4.5 | activity change, negative = inhibition, % at 105 µM | 230,000 tested, under 10 active | AID 1467; inconclusive = small, poorly fitted or top-dose-only inhibition, or a rising curve; inactive = flat fitted curve, though single readings scatter; no compound was filed as active;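 note: 0% = full activity with enzyme and -100% = basal without enzyme; dose as in the result columns while the protocol names 77 µM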
Target sequence (P06280 whole entry, looked up): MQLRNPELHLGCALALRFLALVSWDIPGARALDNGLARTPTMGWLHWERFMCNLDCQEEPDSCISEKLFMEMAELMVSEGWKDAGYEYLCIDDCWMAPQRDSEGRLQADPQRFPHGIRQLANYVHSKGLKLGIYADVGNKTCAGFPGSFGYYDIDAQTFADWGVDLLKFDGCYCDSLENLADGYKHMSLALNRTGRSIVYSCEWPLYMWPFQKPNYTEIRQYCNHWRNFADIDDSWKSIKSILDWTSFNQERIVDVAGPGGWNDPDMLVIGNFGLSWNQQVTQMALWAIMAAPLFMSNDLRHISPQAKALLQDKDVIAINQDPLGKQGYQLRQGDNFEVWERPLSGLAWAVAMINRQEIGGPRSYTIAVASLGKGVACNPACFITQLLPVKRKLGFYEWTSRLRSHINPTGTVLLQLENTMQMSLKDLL
Rango-impB inh – prevents formation of the Rango-importin beta complex; Q14974; Rango CFP/YFP FRET sensor + importin beta, 45 min; Potency, µM (doses to about 92.2 µM), for the others: at the highest dose inhibition of complex formation; 0.031% of 340,000 active; active = rising FRET ratio curve, often small or poorly fitted; inconclusive = mostly compound fluorescence or quenching in the first reads; inactive = flat curves in all reads;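 note: potency is the fitted concentration of half-maximal effect; 0% = DMSO wells and 100% = buffer wells lacking importin beta; nearly all actives have a fitted effect of over 15% in size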
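FRET biosensor (snurportin 1 IBB flanked by EYFP and cerulean), 50 nM, with compound 5 min, then 0.125 microM importin beta in PBS, 1 mM DTT, 0.02% Tween-20, 0.1% BSA. CFP/YFP ratio read after 45 min at room temperature; pre-read flags interference.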
* = called active by the depositor; ? = inconclusive; · = not tested or not shown; & = joins results of further samples. Some of the compounds tested; the hit share may differ from the screen's.

entry	Compound	Rango-impB inh	GLA inh pH 4.5	Rango dissoc inh	miR-21 reporter
1	CCN(CC)S(=O)(=O)c1ccc(S(=O)(=O)Nc2ccc(C(=O)N3CCCC3)cc2)cc1	-0.3%	-30	-7%	-7%
2	COc1cc(OC)cc(C(=O)N2CCN(C(=O)Cc3ccccc3)CC2)c1	-1.4%	1	-7%	2%
3	COc1ccc(-c2csc(NC(=O)COC(=O)c3ccc(Br)o3)n2)cc1	·	-9	·	-58%
4	O=c1[nH][nH]cc1C=Nc1ccc(Oc2ccccc2)cc1	-1.3%	-3	-20%	0%
5	CCCc1ccc(OCC(O)CN2CCN(CCO)CC2)cc1 (configuration not stated)	-0.5%	·	0%	0%
6	CNS(=O)(=O)c1ccc2c(c1)C(=O)c1cc(S(=O)(=O)NC)ccc1CC2	-0.3%	·	-22%	·
7	Cc1ccc(C2Nc3cccc4cccc(c34)N2)s1	0.5%	-4	0%	-11%
8	Nc1nnc(-c2ccc(F)cc2)s1	11%	13	-15%	-14%
9	Cc1cc(CN2CCCC(N3CCc4ccccc4C3)C2)cc(C)c1O (configuration not stated)	5.9%	·	-30%	5%
10	Nc1nc(SCC(=O)NCC2CCCO2)[nH]c(=O)c1NC(=O)c1ccc(F)c(F)c1 (configuration not stated)	0.4%	·	1%	-1%
11	Cc1ccc(-n2nc(C(=O)N3CCN(C)CC3)c3c4ccccc4n(C)c3c2=O)cc1	4.7%	·	-2%	·
12	COc1ccc(OC)c(NC(=O)c2cc(-c3cc(Cl)ccc3O)n[nH]2)c1	2.5%	-3	2%	16%
13	O=C(COC(=O)/C=C/c1cccc(Cl)c1)Nc1c(F)cccc1F	0.1%	·	-2%	·
14	Cc1ccc(NC(=O)CN(C)C(=O)Cn2ncc(Cl)c(Cl)c2=O)cc1	-2.8%	-21	-3%	29%
15	CC(NC(=O)COC(=O)C1CC1C)c1cccc(Cl)c1 (configuration not stated)	4.5%	·	15%	·
16	CNCC/C=C1/c2ccccc2CSc2ccccc21	0.3%	-8	-4%	18%
17	O=[N+]([O-])c1ccc(-n2cccc2/C=N/Nc2nc(N3CCCCC3)nc(N3CCCCC3)n2)cc1	·	3	·	-4%
18	C#CCOCCOCCOCCNc1nc(N2CCOCC2)nc(N2CCN(C(=O)[C@H]([C@@H](C)CC)n3cc(CCCCN)nn3)CC2)n1	0.2%	-4	-4%	-6%
19	O=C(O)CCCC(=O)Nc1cccc(-c2nc3ccccc3[nH]2)c1	-2.3%	1	-13%	3%
20	C#CCOCCOCCOCCNc1nc(N2CCN(C(=O)[C@H](CC(N)=O)n3cc([C@@H](N)CC(N)=O)nn3)CC2)nc(N2CCN(C(=O)[C@H](CC(N)=O)n3cc([C@@H](N)CC(N)=O)nn3)CC2)n1	1.8%	·	?	·
21	CN(C)CCCNC(=S)Nc1ccc(Br)cc1	-1.1%	-4	-2%	-13%
22	CCCn1c(C(C)Nc2nc(-c3ccc(OC)cc3)cs2)nc2ccccc21 (configuration not stated)	0.0%	·	-9%	-5%
23	CC(C)c1ccc(C2=NN(c3ccccc3)C(=O)CC2)cc1	-0.9%	-9	12%	-25%
24	CC(C)(C)NC(=O)c1ccc(COCC(F)(F)F)o1	-0.2%	2	12%	-5%
25	NNC(=O)CSc1ncc(-c2ccccc2)[nH]1	0.9%	4	-1%	-8%
26	O=C(Cn1cc(C(F)(F)F)ccc1=O)N/N=C/c1ccccc1	0.1%	-1	1%	0%
27	COc1ccc(CNC(=O)C2CCN(C(=O)c3cccc(Cl)c3)CC2)cc1	-0.2%	·	5%	4%
28	Cc1nc2sccn2c1-c1csc(NCc2ccccc2)n1	0.2%	-14	21%	12%
29	CC(=O)N/C(=C/c1ccc(Cl)cc1)C(=O)NCCc1c[nH]c2ccccc12	0.0%	2	12%	1%
30	CCc1nc2cc3sc(CC)nc3cc2s1	-4.4%	-6	-1%	-53%

Next part (3 carried over from the part before).
entry	Compound	Rango-impB inh	GLA inh pH 4.5	Rango dissoc inh	miR-21 reporter
28	Cc1nc2sccn2c1-c1csc(NCc2ccccc2)n1	0.2%	-14	21%	12%
29	CC(=O)N/C(=C/c1ccc(Cl)cc1)C(=O)NCCc1c[nH]c2ccccc12	0.0%	2	12%	1%
30	CCc1nc2cc3sc(CC)nc3cc2s1	-4.4%	-6	-1%	-53%
31	CN(C1CCCCC1)S(=O)(=O)c1ccc(=S)[nH]c1	-0.6%	·	-5%	·
32	CCN1C(=O)[C@H]2[C@@H](c3ccc(-c4ccc5c(c4)OCO5)c(OC)c3)N[C@@](C)(C(=O)OC)[C@H]2C1=O	-5.7%	·	-3%	·
33	CC1(C)Cc2cccc(C(=O)NC3CCN(Cc4ccccc4)CC3)c2O1	1.5%	-7	30%	-6%
34	O=c1cc2ncc(-c3[nH]ncc3[N+](=O)[O-])cn2[nH]1	0.9%	-3	-9%	7%
35	CCc1nn(CC(=O)NCCCN2CCOCC2)c(=O)c2cc3cc(F)ccc3n12	0.6%	·	-10%	-5%
36	Cc1nnc2sc(SCC(=O)N3CCC(C)CC3)nn2c1=O	-0.2%	·	-18%	3%
37	C[C@@H]1CCC2[C@](C)(CO)[C@@H](O)CC[C@]2(C)[C@@]12CC[C@@](CO)(CC(=O)O)O2 (some centres not stated)	3.2%	·	2%	-2%
38	COC(=O)c1ccc(CSc2nnc(Nc3ccc(OC)cc3)s2)o1	-7.8%	-26	7%	-12%
39	CCN(Cc1ccccc1)C(=O)COC(=O)c1cnc(C)cn1	0.4%	1	-8%	6%
40	CCN(CC)CCCN(C(=O)c1ccccc1F)c1nc(-c2ccc(OC)cc2)cs1	-3.8%	·	0%	7%
41	Cc1ccc(S(=O)(=O)N2CCCC2)cc1C(=O)Nc1ccc(-n2cnnn2)cc1	-0.3%	·	22%	·
42	CC(C)C(NCC(=O)Nc1ccccc1C(=O)NC1CC1)c1ccccc1 (configuration not stated)	-0.6%	·	0%	·
43	CCOc1ncccc1C(=O)Nc1ccc(F)c(Cl)c1	-1.0%	-1	6%	-20%
44	O=C(CN(Cc1ccco1)C(=O)Cn1nnc(-c2cccs2)n1)NCc1ccccc1	-4.1%	3	-6%	-4%
45	O=C(NCCC1=CCCCC1)c1ccc(-n2cncn2)cc1	-0.9%	·	6%	·
46	O=C(NC1CCCCCC1)C1c2ccccc2C(=O)N1Cc1ccco1 (configuration not stated)	-1.9%	7	-3%	1%
47	CCOCCCn1c(=NC(=O)c2ccc(OC)c(OC)c2)c(C#N)cc2c(=O)n3cccc(C)c3nc21	·	7	·	-8%
48	CC(C(=O)Nc1ccc(F)cc1Cl)N(C)CCOc1ccccc1 (configuration not stated)	-3.9%	·	-14%	-6%
49	O=C(Cc1ccccc1)NCc1n[nH]c(=S)n1-c1ccccc1	1.2%	3	-1%	3%
50	CC(C)CCC(C(=O)O)C(C)CC(=O)NC1CCCCC1 (configuration not stated)	-3.0%	3	14%	3%
51	O=C(C=P(c1ccccc1)(c1ccccc1)c1ccccc1)c1ccccc1-c1ccccc1C(=O)C=P(c1ccccc1)(c1ccccc1)c1ccccc1	6.5%	·	3%	·
52	Cc1csc(NC(=O)CSc2nc3[nH]c(=O)cc(O)c3s2)n1	-4.7%	·	6%	·
53	COC(=O)c1cnn(-c2ccc(C)c(C)c2)c1-n1cccc1	-3.5%	-5	8%	-21%
54	NC(=O)c1cc2cc(Cc3ccccc3Cl)ccc2oc1=O	0.1%	-15	22%	-24%
55	O=C(NNC1CC(c2ccccc2)=NN1C(=O)c1ccccc1)c1ccccc1 (configuration not stated)	3.6%	0	16%	-7%
56	N#Cc1sc2nc(C3CC3)cc(-c3ccc(Cl)cc3)c2c1N	?	-1	?	-13%
57	COc1cccc(N2C(=O)C3C(C2=O)C3(c2ccccc2)c2ccccc2)c1 (configuration not stated)	-0.1%	5	17%	0%
58	Cc1ccc(OCC(=O)NNC(=O)c2ccccc2OCc2c(C)noc2C)cc1	1.0%	·	14%	·
59	Cc1cc(C)n(CCn2nc(C)cc2C)n1	-0.9%	-6	-4%	2%
60	CC(=O)N/N=C(\C)CC(=O)Nc1cccc(C(F)(F)F)c1	3.7%	-9	-1%	-2%

(list continues)
entry	Compound	Rango-impB inh	GLA inh pH 4.5	Rango dissoc inh	miR-21 reporter
61	Cc1c(-c2cccc(Cl)c2)nc2ccccc2c1C(=O)NC1CC1	-0.9%	·	25%	-2%
62	CCOc1c(OC)ccc2c3c(c(=O)oc12)CCCC3	-0.8%	3	-6%	-11%
63	COCCn1c(SCC(=O)Nc2ccc(F)cc2)nc2c([nH]c3ccccc32)c1=O	2.9%	·	7%	4%
64	Cc1cc(C)c(C(=O)O)c(CC(C)(C)C(=O)O)c1	?	-10	-4%	-1%
65	Cc1ccc(/C=C2\Sc3ccccc3C2=O)s1	?	-2	2.9µM*	-17%
66	N#Cc1c(-c2cccc([N+](=O)[O-])c2)nc2n(c1=O)CCS2	2.0%	·	3%	-5%
67	CCc1ccc(C(=O)NNc2ccc(F)cc2)cc1	0.0%	-3	3%	3%
68	CCc1ccc(-c2cc(C(=O)NCc3ccco3)c3ccccc3n2)s1	?	9	10%	-12%
69	O=C(COC(=O)/C=C/c1ccccc1[N+](=O)[O-])NC1CC1	-6.1%	11	-6%	0%
70	CCS(=O)(=O)c1ncc(Cl)c(C(=O)Nc2ccc(C)cc2)n1	0.0%	·	1%	?
71	COc1cc(S(=O)(=O)N2CCN(C(=O)C3CC3)CC2)ccc1NC(C)=O	-1.7%	·	23%	·
72	CC(=O)Nc1ccc(NC(=O)CC(NC(=O)c2ccccc2)c2ccccc2)cc1 (configuration not stated)	-3.2%	·	2%	-13%
73	COc1ccc(C(=O)NCC2CCCO2)cc1S(=O)(=O)N1CCCc2ccccc21 (configuration not stated)	5.6%	-5	8%	-6%
74	COc1cc(C2CC(=O)C3=C(C2)Nc2ncnn2C3c2cccs2)cc(OC)c1OC (configuration not stated)	?	?	-12%	15%
75	C/C=C(\C)CN1CCN(c2ccc(C)cc2)CC1	0.0%	6	-14%	-11%
76	Cc1onc(-c2c(Cl)cccc2Cl)c1C(=O)N1CCN(c2ccc(F)cc2)CC1	3.6%	·	-3%	6%
77	CN(C)c1ccc(CC(=O)c2nc3ccccc3s2)cc1	2.2%	-1	-15%	-55%
78	Cc1cc(-c2n[nH]c(=S)n2/N=C/c2cccc([N+](=O)[O-])c2)n[nH]1	3.2%	4	-6%	1%
79	CCNS(=O)(=O)c1ccc(CCC(=O)Nc2ccc3c(c2)OCO3)cc1	0.1%	·	2%	2%
80	Cc1c(C(=O)N2CCN(c3ccccn3)CC2)oc2c1C(=O)CC(C)(C)C2	-1.0%	·	-4%	12%
81	NC(=O)CN1C(=O)NC2(CCCc3sccc32)C1=O (configuration not stated)	-2.0%	·	0%	0%
82	COC(=O)c1ccccc1NC(=O)COC(=O)[C@H](C)NC(N)=O	1.6%	-3	8%	-2%
83	CCSc1nc(N2CCOCC2)c2c(c1C#N)CCCC2	2.9%	1	-5%	-13%
84	CCN1CCN(C(=S)NC(C)c2ccccc2)CC1 (configuration not stated)	0.3%	2	-5%	1%
85	COc1cccc(N(CC(=O)Nc2ccccc2C(=O)N2CCCC2)S(C)(=O)=O)c1	-4.4%	·	0%	-2%
86	CCOC(=O)N1CCN(C(=O)c2ccccc2NC(=O)c2ccc(F)cc2)CC1	-2.7%	6	23%	-5%
87	COc1ccc(-c2nnc(NC(=O)Cc3ccccc3)o2)cc1	5.6%	·	-21%	-8%
88	COc1ccc(/C=C/C(=O)Nc2ccccc2)cc1OC	-3.6%	-9	8%	-73%
89	O=C(NCCN1CCOCC1)c1cc(-c2ccccc2)on1	-6.0%	-1	16%	-78%
90	COc1cc2c(=O)n(CCC(=O)NCC3CCCO3)c(=O)n(CC(=O)Nc3ccccc3C)c2cc1OC (configuration not stated)	4.2%	·	10%	0%&-3%
91	O=C(Nc1ccc(Oc2ccccc2)cc1)c1ccc(Cn2c(=O)[nH]c3ccsc3c2=O)cc1	-2.8%	4	0%	-1%
92	Nc1ccc2c(c1)C(O)c1cccc(C(=O)O)c1-2 (configuration not stated)	-0.1%	·	-8%	·
